Mtb bLac sens: beta-lactam sensitization of Mtb H37Rv; AID 434955; 0.27% of 330,000 active; M. tuberculosis H37Rv growth with meropenem, percent inhibition; hits of this screen are not shown here; inhibition, % at 25 µM;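 active means about 74% or more and at least 40 points above the plate without the antibiotic, then above 30% in a dose series; inconclusive means first-round hits that could not be retested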;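 further: growth measured after seven days incubation then overnight dye step; 0% = bacteria only wells and 100% = bacteria with antibiotic; twin plates without the antibiotic show which effects depend on it; some results filed as inactive read as strong as hits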
Mtb H37Rv: M. tuberculosis H37Rv growth inhibitors, H37Rv strain (AID 1626) | 0.95% of 220,000 active | M. tuberculosis H37Rv growth inhibition; higher % means a stronger effect | inhibition, % at 10 µM, or IC50 in µM where a hit was titrated;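 active means confirmed in a dose series; inconclusive means inhibition above 80% but not taken into the dose series; inactive means below 80% or under 30% at every dose of the series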;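 further: bacteria incubated seven days before Alamar blue readout; 0% = bacteria only wells and 100% = bacteria with antibiotic wells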
YopH PTP inh: blocks Yersinia enterocolitica YopH tyrosine phosphatase | fluorescence Ex485/Em525 | inhibition, %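 (about 10 µM by stock and volumes)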 | 0.16% of 140,000 active | AID 898;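 active means inhibition of 50% or more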;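 further: controls were vehicle for no effect and minimum signal wells for full effect; inactives centre near -20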
Arbovirus anti: arbovirus infection inhibition | inhibition, % at 10 µM | arbovirus infection cell-based antiviral screen | AID 1251 | 0.37% of 200,000 active;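 active means inhibition from about 30%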;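 further: bluetongue infection of BSR cells; cell survival read as ATP light after 72 h; 0% = infected wells without compound and 100% = uninfected wells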
RecA splice inh: Mtb RecA intein splicing inhibition; P9WHJ3; cell-free RecA intein splicing, fluorescence; inhibition, %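 (about 9 µM by stock and volumes)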; 0.75% of 290,000 active; in the data active means inhibition above about 30%; inconclusive means no clear call, values can overlap the other calls;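 further: 0% = vehicle wells and 100% = reference inhibitor control wells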
Target sequence (P9WHJ3 whole entry, looked up, canonical isoform): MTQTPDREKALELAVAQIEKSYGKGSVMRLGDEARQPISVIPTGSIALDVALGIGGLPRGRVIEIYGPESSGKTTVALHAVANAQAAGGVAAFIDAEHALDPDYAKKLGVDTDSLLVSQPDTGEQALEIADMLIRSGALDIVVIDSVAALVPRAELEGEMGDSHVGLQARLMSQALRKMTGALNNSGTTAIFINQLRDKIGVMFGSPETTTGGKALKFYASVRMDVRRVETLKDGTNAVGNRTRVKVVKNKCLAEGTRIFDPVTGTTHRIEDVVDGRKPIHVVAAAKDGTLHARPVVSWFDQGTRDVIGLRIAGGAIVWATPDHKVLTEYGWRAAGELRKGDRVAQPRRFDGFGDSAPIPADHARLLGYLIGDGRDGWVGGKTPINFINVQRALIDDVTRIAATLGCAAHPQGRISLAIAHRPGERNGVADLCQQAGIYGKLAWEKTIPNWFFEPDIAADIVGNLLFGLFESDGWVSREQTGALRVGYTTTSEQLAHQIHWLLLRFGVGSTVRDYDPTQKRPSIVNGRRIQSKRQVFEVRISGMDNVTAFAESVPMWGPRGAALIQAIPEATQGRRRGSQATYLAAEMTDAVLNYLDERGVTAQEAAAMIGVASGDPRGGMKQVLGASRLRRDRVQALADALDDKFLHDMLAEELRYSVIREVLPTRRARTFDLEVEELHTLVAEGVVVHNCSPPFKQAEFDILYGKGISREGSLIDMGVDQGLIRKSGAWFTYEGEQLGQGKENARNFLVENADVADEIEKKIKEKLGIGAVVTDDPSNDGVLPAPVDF
Arbovirus anti repeat: second read-out of Arbovirus anti, no call of its own (marks repeat the call); inhibition, %; measured here: 10K subset replicate screen; many hits read low in the repeat;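 first of two repeat runs on a subset; 0% = infected and 100% = uninfected wells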
Active calls of the source: *; ? = inconclusive; nt = not tested or not shown. A portion of the library; rates above refer to the full screens.

SMILES | Mtb bLac sens | Mtb H37Rv | YopH PTP inh | Arbovirus anti | RecA splice inh | others
Nc1oc2ccccc2c(=O)c1-c1ccc2c(c1)OCO2 | -3 | nt | nt | nt | -2.4
CCOc1ccc(-c2n[nH]c(=S)o2)cc1 | 1 | -1% | nt | 4 | -0.9
O=c1oc2ccccc2c(NCc2ccccc2)c1[N+](=O)[O-] | 1 | 5% | -22 | -2 | 0.2
CCOC(=O)/C(CCCN(CC)CC)=N\O | -2 | -6% | -18 | -4 | 1.6
O=c1c(OC2OC(CO)C(O)C(O)C2OC2OC(CO)C(O)C(O)C2OC2OC(CO)C(O)C(O)C2O)c(-c2ccc(O)c(O)c2)oc2cc(O)cc(O)c12 (stereo not drawn) | -5 | -14% | nt | nt | nt
COc1cccc2cc(C(=O)NCc3ccccc3Cl)c(=O)oc12 | 0 | nt | nt | nt | -3.2
Cn1c(=S)[nH]c2scc(-c3cccs3)c2c1=O | nt | 35% | nt | 6 | 2.4
O=C(O)c1ccc(S(=O)(=O)Nc2cccc(CP(=O)(c3ccccc3)c3ccccc3)c2)cc1 | -2 | 5% | nt | nt | 1.8
N#C/C(=C/c1cccn1-c1cccc(C(=O)O)c1)c1ccc(Cl)cc1 | -4 | -3% | nt | -8 | 6.4
CCC(C)N(CCNC(=O)c1ccc2c(c1)NC(=O)c1ccccc1S2)C1CCCCC1 (stereo not drawn) | 2 | nt | nt | nt | 2.3
CCOc1ccc(-c2c(C)n(-c3ccc(OCC)cc3)c3[n+]2CCCCC3)cc1 | 98 | 76% | nt | nt | 3.8
Cc1ccc(Cn2c(CN3CCN(C(=O)c4ccco4)CC3)nc3c2c(=O)n(C)c(=O)n3C)cc1 | ? | nt | -21 | 10 | 3.4
O=C1CSC(c2ccc(Cl)cc2)N1 (stereo not drawn) | 6 | 1% | -7 | 0 | 2.6
CCOC(=O)c1cccc(NC(=O)CSc2nnnn2CC)c1 | -7 | 8% | -49 | 6 | 4.1
COc1ccc(-c2csc(=Nc3c(C)n(C)n(-c4ccccc4)c3=O)n2C(C)(C)C)cc1 | -8 | -5% | -14 | 4 | -2.8
CCOC(=O)COc1ccccc1/C=N/Nc1nnc2c3ccccc3n(C)c2n1 | -4 | nt | nt | nt | -5.9
COc1ccc(-n2c(O)c(Cc3ccccc3)c(=O)n3nc(-c4ccccc4)c(=O)cc23)cc1 | 56 | -5% | -90 | 16 | -3.2
Cc1ccccc1C(=O)N1CCN(c2ccc(NC(=O)c3cccnc3Cl)cc2)CC1 | -12 | -2% | nt | -2 | -0.6
COc1cc(Cn2c(N)c(C(=O)NCc3ccco3)c3nc4ccccc4nc32)cc(OC)c1OC | 21 | 7% | -12 | -25 | -117
COC(=O)c1c(NC(=O)C2C3CCC(O3)C2C(=O)O)sc2c1CCCCCC2 (stereo not drawn) | -3 | 1% | -22 | 11 | -4.5
CCCCn1c(SCC(=O)NC(C)CC)nc2ccc(N3CCOCC3)cc2c1=O (stereo not drawn) | 1 | nt | -45 | -7 | -7.8
Clc1ccccc1N1CCN(Cc2ccco2)CC1 | -8 | nt | nt | nt | 2.3
Cc1ccccc1NC(=S)NC(NC(=O)N(C)C)C(Cl)(Cl)Cl (stereo not drawn) | -11 | 2% | 1 | -8 | 0.5
CC(=O)N1c2ccc(S(=O)(=O)NCC3CCC(C(=O)NCc4ccc(C)cc4)CC3)cc2CC1C (stereo not drawn) | 50 | nt | nt | nt | -1.0
Cc1cccc(NC(=O)c2cc3c(n(-c4ccccc4)c2=O)CCCC3=O)n1 | nt | 5% | 8 | 0 | -0.9
Cn1c(=O)c2c(nc(CN3CCN(c4ccccc4)CC3)n2CCN2CCOCC2)n(C)c1=O | 4 | 4% | nt | nt | -2.5
COc1cccc(CNC(=O)N2CCN(S(=O)(=O)c3ccc(C)cc3)CC2)c1 | 4 | nt | nt | nt | 0.0
CCOc1ccc(CCNC(=O)COC(=O)COc2ccccc2C)cc1OCC | 2 | nt | nt | nt | 0.6
COC(=O)CSc1nnc(CNC(=O)c2cccc(C)c2)n1-c1ccccc1OC | -3 | nt | 76* | -5 | nt
Cc1cc([N+](=O)[O-])cc2c1NC(=O)C2(O)N1CCCC(C)C1 (stereo not drawn) | -2 | nt | nt | nt | -1.3
COCC(C)NC(=O)c1cc2cc(OC)ccc2[nH]1 (stereo not drawn) | -1 | -1% | nt | nt | 3.4
Cc1ccc(/C=C2/NC(=O)N(c3ccccc3)C2=O)o1 | 6 | 0% | -35 | 9 | -4.0
CCCCCN(C(=O)CCC(=O)OCC(=O)N1CCCCC1C)c1c(N)n(CCCC)c(=O)[nH]c1=O (stereo not drawn) | -21 | nt | nt | nt | -5.3
Cc1cc(C)c(NC(N)=S)c(C)c1 | -7 | 6% | nt | nt | -3.4
Cc1coc(C)c1C(=O)CC1(O)C(=O)N(C)c2ccc(Cl)cc21 (stereo not drawn) | -4 | 2% | nt | -3 | -0.9
Cc1csc(NC(=O)c2cccc(Cn3nc(C)c(Br)c3C)c2)n1 | 52 | 9% | -4 | -34 | 16
CCOC(=O)c1sc(SCc2ccccc2)c2c1CC(C)(C)CC2=O | -2 | 5% | nt | nt | 1.9
CS(=O)(=O)N(CC(=O)N/N=C/c1ccccc1C(=O)O)c1cccc(Cl)c1Cl | 0 | 1% | nt | nt | -7.4
O=C1c2ccccc2C(=O)N1CN(C(=O)c1ccccc1[N+](=O)[O-])c1ccc(F)cc1 | 5 | -6% | -22 | -4 | 0.0
Cc1ccc(C(=O)N2CCN(C3CCCCC3)CC2)s1 | -5 | -6% | -36 | -2 | -1.1 | Arbovirus anti repeat=2
COc1ccc(NC(=S)N(CCN(C)C)C(C)c2ccco2)cc1 (stereo not drawn) | -1 | -6% | -24 | 3 | 0.0
CN1C(=O)c2ccccc2C(C(=O)O)C1c1cccc(Cl)c1 (stereo not drawn) | -2 | -1% | -12 | 5 | -6.7
Cc1ccc(N=c2c([N+](=O)[O-])nn(-c3ccc4c(c3)OCCO4)n2O)c(Cl)c1 | 7 | 19% | nt | -15 | -0.1
O=C(CN1C(=O)C2CCCCN2C(=O)c2ccccc21)N1CCCc2ccccc21 (stereo not drawn) | -12 | 8% | -34 | 3 | -1.2
c1ccc(N=P(N2CCOCC2)(N2CCOCC2)N2CCOCC2)cc1 | -1 | 10% | -39 | 5 | -0.3
CCOC(=O)Cn1c(CN2CCN(C(c3ccccc3)c3ccccc3)CC2)nc2c1c(=O)n(C)c(=O)n2C | 2 | 9% | -43 | 2 | 12
CCOC(=O)c1c(NC(=O)Cn2cnc([N+](=O)[O-])n2)sc2c1CCC(C)C2 (stereo not drawn) | -10 | 3% | -37 | -10 | -3.6
CCOC(=O)c1c(C)oc2c1c(C(c1cccnc1)N1CCOCC1)c(O)c1ccccc12 (stereo not drawn) | 81 | 8% | 0 | -31 | 21
COC(=O)CCN(C(=O)c1ccc(C)c([N+](=O)[O-])c1)c1ccccn1 | -17 | -2% | nt | 9 | -3.9
CCOC(=O)Cn1nc(C)c(NC(=O)COc2ccc([N+](=O)[O-])cc2)c1C | 1 | 2% | nt | -3 | 1.7
CN1CCN(S(=O)(=O)c2cccc(C(=O)Nc3cc(C(F)(F)F)ccc3N3CCCC3)c2)CC1 | -3 | nt | nt | nt | -0.1
COc1ccc(CCNc2oc(-c3ccc(OC)c(OC)c3)nc2C#N)cc1 | -5 | -4% | -26 | 2 | 2.7
COc1ccc(CCNC(=O)c2c(N)n(CCN3CCOCC3)c3nc4ccccc4nc23)cc1OC | 24 | 20% | -27 | -2 | -65
COc1ccc(S(=O)(=O)NCCCCCC(=O)O)cc1C(=O)O | 4 | 2% | nt | 1 | -4.1
CCOC(=O)c1c(-c2ccc(OC)cc2)oc2ccc(OCC(N)=O)cc12 | 5 | nt | nt | nt | 4.8
C#CCn1cnc2c(cnn2-c2ccc(C)c(C)c2)c1=O | 33 | 1% | -32 | -3 | 2.2
Cc1cc(=O)[nH]c(SCc2ccccc2)n1 | -1 | nt | nt | nt | 0.5
COc1cc(NC(=S)NCCN2CCOCC2)cc(OC)c1 | -3 | 5% | 6 | 2 | -1.7
O=C(Nc1ccccc1)N1CCn2c(nc3ccccc32)C1 | 2 | 1% | 0 | -5 | 0.6
Cc1ccc2occ(/C=N/NC(N)=S)c(=O)c2c1 | 9 | -2% | -22 | -3 | 0.3
Next results follow.
SMILES | Mtb bLac sens | Mtb H37Rv | YopH PTP inh | Arbovirus anti | RecA splice inh | others
CCOCCOC(=O)C1=C(C)N(C)C(=O)NC1c1cc(Cl)c(O)c(OCC)c1 (stereo not drawn) | -1 | -4% | -36 | 2 | 1.6
Nc1nc(-c2ccc3c(c2)OCCO3)cs1 | 95 | 78% | -7 | -6 | -2.0
Cn1nnnc1SCC(=O)Nc1ccc(Oc2ccccc2)cc1 | -1 | 57% | -7 | -6 | 3.3
CN1CCCCC1=NCCCn1cnc2c1c(=O)n(C)c(=O)n2C | 2 | -6% | -57 | -2 | -0.6
Cc1nc(Nc2ccccc2F)c2nnn(Cc3ccccc3Cl)c2n1 | -4 | nt | nt | nt | -4.1
COCc1cc(C)nc(N2CCCCC2)c1C#N | -3 | 13% | -31 | -8 | -1.3
CC(N)Cc1ccccc1Sc1ccc(O)cc1 (stereo not drawn) | 38 | nt | 10 | 0 | -0.8
O=C(NN1CCOCC1)c1ccccc1 | 4 | nt | nt | nt | 0.9
O=C(Nc1nc(-c2ccc(F)c(F)c2)cs1)Nc1ccc(F)cc1F | 25 | nt | nt | nt | -3.6
CCCn1c(SC(C)C(=O)NCC2CCCO2)nc2cc(Cl)ccc2c1=O (stereo not drawn) | -4 | nt | nt | nt | -11
Cc1ccc2c(c1)C1CN(C)CCC1N2C(=S)Nc1ccc(Cl)cc1Cl (stereo not drawn) | -8 | 4% | nt | 18 | -0.1
COc1cc(Cl)ccc1OCc1cc(C(=O)N2CCC(N(C)C)C2)no1 (stereo not drawn) | 14 | nt | nt | nt | 0.4

Molecules listed so far with an aryl thioether with sulfur outside any ring (eight):
SMILES | Mtb bLac sens | Mtb H37Rv | YopH PTP inh | Arbovirus anti | RecA splice inh | others
CCOC(=O)c1cccc(NC(=O)CSc2nnnn2CC)c1 | -7 | 8% | -49 | 6 | 4.1
CCCCn1c(SCC(=O)NC(C)CC)nc2ccc(N3CCOCC3)cc2c1=O (stereo not drawn) | 1 | nt | -45 | -7 | -7.8
COC(=O)CSc1nnc(CNC(=O)c2cccc(C)c2)n1-c1ccccc1OC | -3 | nt | 76* | -5 | nt
CCOC(=O)c1sc(SCc2ccccc2)c2c1CC(C)(C)CC2=O | -2 | 5% | nt | nt | 1.9
Cc1cc(=O)[nH]c(SCc2ccccc2)n1 | -1 | nt | nt | nt | 0.5
Cn1nnnc1SCC(=O)Nc1ccc(Oc2ccccc2)cc1 | -1 | 57% | -7 | -6 | 3.3
CC(N)Cc1ccccc1Sc1ccc(O)cc1 (stereo not drawn) | 38 | nt | 10 | 0 | -0.8
CCCn1c(SC(C)C(=O)NCC2CCCO2)nc2cc(Cl)ccc2c1=O (stereo not drawn) | -4 | nt | nt | nt | -11

Next part
SMILES | Mtb bLac sens | Mtb H37Rv | YopH PTP inh | Arbovirus anti | RecA splice inh | others
COc1ccccc1NC(=O)Cn1cnc2c1c(=O)n(C)c(=O)n2C | -5 | -14% | 3 | -3 | -4.0
N#Cc1c(C#N)c(O)c2ccccc2c1O | -3 | -5% | nt | nt | 84*
CCn1c(CC(=O)Nc2ccc(Cl)c(Cl)c2)nnc1SCc1ccc(Cl)cc1 | 9 | -2% | -38 | -1 | -0.7
Cc1cc(C)cc(NC(=S)NCC2CCN(C(C)c3ccccc3)C2)c1 (stereo not drawn) | 6 | 5% | nt | -29 | 7.6
NC(=O)C1CCN(C(=O)c2cc3ccccc3cc2O)CC1 | -7 | nt | nt | nt | -5.5
Cc1ccc2c(CC(=O)NCCc3ccc(S(N)(=O)=O)cc3)coc2c1 | 2 | 2% | nt | nt | -1.2
O=C(Cn1c(=O)[nH]c2ccccc2c1=O)Nc1cccnc1 | -5 | nt | nt | nt | -2.8
CC(=O)N1CCC(=NNC(=O)c2cc3ccccc3cc2O)CC1 | 16 | nt | nt | nt | -30
CCCCOC(=O)c1ccc(NC(=O)C(CCS(C)(=O)=O)NC(C)=O)cc1 (stereo not drawn) | 22 | 4% | -49 | 0 | -1.3
CCN(CC)S(=O)(=O)c1cccc(-c2nnc(C(=O)c3ccc(C(F)(F)F)cc3)o2)c1 | -1 | -6% | -54 | -3 | -0.3
C=Cc1ccc(C(=O)N2CCCC(CCC(=O)N3CCN(c4ccccn4)CC3)C2)cc1 (stereo not drawn) | 1 | nt | nt | nt | -2.0
O=C(Nc1nccs1)C12CC3CC(C1)CC(C(=O)Nc1nccs1)(C3)C2 | -7 | 1% | -27 | -3 | 2.2 | Arbovirus anti repeat=-6

Screens: PubChem, several laboratories
